From PubChem
CBX7 inh = CBX7 chromodomain binding inhibitors, primary screen, biochemical, AlphaScreen | AlphaScreen His6-CBX7 / biotin-H3K27me3 peptide binding; active compounds read low | normalised signal (fraction of DMSO) (no concentration beside the values) | 66,000 compounds, 1.1% hits | AID 1224903, 2016; in the data active = normalised signal below about 0.5;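 note: 100 nL library stock added to about 20 µL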
Target sequence (O95931 whole entry, looked up): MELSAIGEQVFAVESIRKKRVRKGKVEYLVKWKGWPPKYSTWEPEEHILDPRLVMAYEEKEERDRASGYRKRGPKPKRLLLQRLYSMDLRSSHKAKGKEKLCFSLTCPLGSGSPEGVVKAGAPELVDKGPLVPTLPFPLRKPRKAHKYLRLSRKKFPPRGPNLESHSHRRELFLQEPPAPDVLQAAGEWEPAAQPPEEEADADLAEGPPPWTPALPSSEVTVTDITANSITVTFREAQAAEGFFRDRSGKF
CBX7 inh z-score = further read-out of CBX7 inh, marked with its call; z-score; measured here: z-score of CBX7 signal; some inactives read as strong as hits; reference of the scale not given here;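 same signal on another scale; lower means less binding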
The depositor's hits bear a star; & = joins results of further samples.

Molecule	CBX7 inh z-score	CBX7 inh
COc1ccc(CNc2ncnc3c2cnn3-c2ccc(C)cc2C)cc1	-0.3	0.99
Cc1ccc(-c2nnc(Nc3ccc4c(c3)OCO4)c3ccccc23)cc1S(N)(=O)=O	-4.5	0.6
Nc1nonc1-c1noc(-c2cccnc2)n1	0.87	1.1
COc1ccc(C(=O)Nc2cc(-c3nc4ncccc4o3)ccc2C)cc1OC	2.5	1.1
COc1ccc(C(=O)CSc2ncc(-c3ccc(Br)cc3)[nH]2)cc1	-2.4	0.95
CCN1CCCC1CNC(=O)C1CCCN(c2nnc(-n3cccc3)s2)C1 (configuration not stated)	-0.73	0.97
CCCN1Cc2cccc(-c3nc(C)c(C(=O)OCC)o3)c2C1=O	0.84	1.1
O=C(NC1CCCC1)C1c2ccccc2C(=O)N1CCc1ccc(Cl)cc1 (configuration not stated)	0.27	1
Cc1cc(C)n2c(Nc3ccccc3)c(-c3cccs3)nc2n1	-1.7	0.86
Cc1ccc(OCc2nc(-c3cccnc3)no2)cc1C	0.074	1.1
Cc1onc(-c2ccccc2Cl)c1C(=O)N1CCCCC1C (configuration not stated)	-0.67	0.96
CCN(C(=O)Cc1nc(N)n[nH]1)C1(C(=O)Nc2ccc(C)cc2)CCCCC1	-3.8	0.79
COc1ccc(-n2ncc3c(NCc4ccc5c(c4)OCO5)ncnc32)cc1	0.052	1.1
CCOc1ccc(Nc2oc(-c3ccccc3)nc2C#N)cc1	-0.84	0.98
COC(=O)c1ccc2nc(C)cc(Nc3ccc(C)c(C)c3)c2c1	0.48	1
CCc1ccc2nc(N3CCC(C(=O)NCCc4ccc(OC)c(OC)c4)CC3)sc2c1	0.11	1.1
Cc1cc(N2CCC(C(=O)NC3CCC(C)CC3)CC2)n2nc(C)c(-c3ccc(Cl)cc3)c2n1 (configuration not stated)	0.072	1
Cc1cccc(CN2CCN(CC(=O)NCc3ccccc3)C2=O)c1	-0.16	0.99
CC1CCN(c2nc3ccc(C(=O)NC4CCCC4)cc3s2)CC1	-0.33	0.98
Cc1cc(Oc2ccc(Cl)cc2)nc(-c2ccccc2O)n1	1.5	1.1
Cc1c(Cl)cccc1NC(=O)c1cc(CC(C)C)on1	5.4	1.2
COc1ccccc1-c1c(C)nn2c(N3CCN(c4ccc(Cl)cc4)CC3)cc(C)nc12	-0.54	0.96
FC(F)(F)c1nc(Nc2ccccc2Cl)sc1-c1ccccc1	1.1	1.1
COc1ccc(-c2c3c(=O)n(C)c(=O)n(C)c3cn2-c2ccc(F)cc2)cc1	-0.74	0.94
COc1ccc(NC(=O)CCc2c(C)nc3cc(-c4ccccc4)nn3c2C)cc1OC	-1.1	0.96

Complete entries, quoted from the list. Screens in order: CBX7 inh z-score | CBX7 inh
COc1ccc(C(=O)Nc2cc(-c3nc4ncccc4o3)ccc2C)cc1OC is entered as 2.5 | 1.1
Cc1c(Cl)cccc1NC(=O)c1cc(CC(C)C)on1 is entered as 5.4 | 1.2
CCN1CCCC1CNC(=O)C1CCCN(c2nnc(-n3cccc3)s2)C1 (configuration not stated) is entered as -0.73 | 0.97
CCCN1Cc2cccc(-c3nc(C)c(C(=O)OCC)o3)c2C1=O is entered as 0.84 | 1.1
Nc1nonc1-c1noc(-c2cccnc2)n1 is entered as 0.87 | 1.1

(more compounds)
Molecule	CBX7 inh z-score	CBX7 inh
CSc1oc(-c2ccccc2)nc1S(=O)(=O)c1ccc(Cl)cc1	-0.34	0.96
O=C(NC1CCCC1)c1csc2c1CCCC2	0.75	1.1
CCOc1ccc(N2C(=O)CC(Nc3ccc(F)cc3)C2=O)cc1 (configuration not stated)	1.5	1.1
CCC(=O)Nc1c2c(nn1-c1cccc(Cl)c1)CSC2	0.085	1
Cc1cccc(NCc2nc3ccccc3n2C)c1	-2	0.95
Cc1ccccc1Cc1c(C)nc2c(C(=O)NC3CC3)cnn2c1C	0.64	1
O=C(Cn1cnc2c(nnn2Cc2ccc(F)cc2)c1=O)Nc1ccc2c(c1)OCO2	-2.2	0.87
Cc1cccc(C(=O)Nc2c(C(=O)Nc3ccc(F)cc3)oc3ccccc23)c1	1.2	1.1
Cc1ccc(CNC(=O)c2ccc3c(c2)N(Cc2ccccc2)CCS3)cc1	-0.09	0.93
CCOC(=O)N1CCc2c(sc(NC(=O)c3ccc(S(=O)(=O)N(C)C)cc3)c2C(N)=O)C1	0.83	1
COc1ccc(NC(=O)N(C2CCCCCC2)C2CCN(C(C)=O)CC2)c(OC)c1	0.52	1
CCCCCC(=O)Nc1ccc(S(=O)(=O)Nc2nccc(C)n2)cc1	-0.4	0.99
Cc1noc(C)c1S(=O)(=O)N1CCN(C(c2ccccc2)c2ccc(Cl)cc2)CC1 (configuration not stated)	-2.1	0.96
Cc1ccc(-c2ccc(=O)n(CC(=O)NCc3ccccc3Cl)n2)cc1	0.3	1
COc1ccc(OC)c(NC(=O)c2c(NCc3cccs3)sc3c2CCCC3)c1	-21	0.59
Brc1cccc(-c2nc(-c3ccccn3)no2)c1	-0.4	0.96
CCc1ccccc1NC(=O)CCNS(=O)(=O)c1ccc2c(c1)CCN2C(C)=O	-3	0.84
Cc1cccc(NC(=O)Cn2nnc(-c3ccccc3F)n2)c1	1.9	1.2
CCCCc1ccc(NC(=O)CSc2nccn2-c2ccc(OCC)cc2)cc1	-2.1	0.74
CCN1CCN(C(=O)c2sc3nc(-c4ccc(F)cc4)cn3c2C)CC1	0.96	1
Cc1cccc(NC(=O)c2cn(C3CCCC3)c(=O)c3c2c2ccccc2n3C)n1	-1.1	0.96
CC(=O)N1CCc2cc(S(=O)(=O)NC(Cc3ccccc3)C(=O)NC3CCCCCC3)ccc21 (configuration not stated)	2.2	1.1
Cc1[nH]c2c(ccc3ccccc32)c(=O)c1CN1CCCCCC1	2.2	1.1
COc1ccc(-c2csc(Nc3ccccc3OC)n2)cc1F	0.24&-4.7	1&0.73
COc1ccc(C(=O)Nc2ncc(Cc3ccc(F)cc3)s2)cc1OC	-0.0037	1

Going on with the list.
Molecule	CBX7 inh z-score	CBX7 inh
CCCc1ccc(-c2ccc(-c3noc(-c4cccc(F)c4F)n3)cc2)nc1	1.9	1.2
CCC1Oc2ccc(C)cc2N(CC(=O)NCCCN2CCCCC2C)C1=O (configuration not stated)	-2.3	0.8
CCC(C)NC(=O)c1cc(=O)[nH]c2ccc(S(=O)(=O)N3CCCCC3C)cc12 (configuration not stated)	-1.5	0.95
CC(=O)Nc1cc(C(F)(F)F)ccc1OCc1ccccc1	1.4	1.1
COC(=O)c1ccc(C2NC(=O)c3c(sc4c3CCN(C)C4)N2)cc1 (configuration not stated)	-2	0.9
CCC(=O)N1CCc2cc(S(=O)(=O)NCCC(=O)N3CC=C(c4ccccc4)CC3)ccc21	-0.38	0.99
O=C(C1CCC1)N1CCc2cc(S(=O)(=O)NCC3CCCO3)ccc21 (configuration not stated)	0.83	1
COc1ccc(-c2cn(-c3cccc(C)c3)c(=O)[nH]2)cc1OC	0.26	1
CCOC(=O)c1cnc2cc(C(F)(F)F)ccc2c1NCCCN1CCOCC1	-0.62	0.96
CCN(Cc1ccccc1)C(=O)CN1C(=O)COc2ccc(S(=O)(=O)N3CCOCC3)cc21	-1.3	0.96
COc1cc2c(C(=O)NCCCN3CCOCC3)cn(CC(C)C)c(=O)c2cc1OC	-1.3	0.95
O=C(Nc1ccc(-c2csc(Nc3ccc(Cl)cc3)n2)cc1)c1ccccc1	0.0032	1
CCCCCCCNC(=O)CC(C(=O)N1CCc2ccccc21)n1ccnc1 (configuration not stated)	-2.8	0.88
Cc1onc(-c2c(Cl)cccc2Cl)c1C(=O)N(C)c1ccccc1	1.2	1
CC(=O)Nc1ccc(Nc2c3c(c(C#N)c4nc5ccccc5n24)CCC3)cc1	0.95	1
CCOc1ccc(-c2cc(CCCC(=O)NCCCOC)no2)cc1	-1	0.96
CCOc1ccc(NC(=O)c2cnn(-c3ccc(C)c(C)c3)c2C2CCNCC2)cc1	-1.9	0.9
CCN(CCCNC(=O)C1CC(=O)N(C2CCCCCCC2)C1)c1cccc(C)c1 (configuration not stated)	-0.86	0.58
Cc1ccc2nc(NCc3ccc(C(=O)O)cc3)c(-n3nc(C)cc3C)nc2c1	3.8	1.1
CCOCCCNC(=O)CN1C(=O)CC(C)(C)Sc2ccccc21	1.3	1
Cc1ccc(CNC(=O)C2CCN(C(=O)c3cc4sccc4n3C)CC2)cc1	0.94	1.1
O=C1CCCC2=C1C(c1cccs1)Nc1ccccc1N2 (configuration not stated)	0.26	1
CCOc1ccccc1CNC(=O)CN1C(=O)CSc2ccccc21	-3	0.82
CCN1CCN(c2oc(COc3ccccc3Cl)nc2C#N)CC1	0.21	1
O=C(Cn1nnc(-c2ccccc2F)n1)Nc1ccccc1F	-0.18	0.87

Next part, starting with the last 3 of the part before.
Molecule	CBX7 inh z-score	CBX7 inh
CCOc1ccccc1CNC(=O)CN1C(=O)CSc2ccccc21	-3	0.82
CCN1CCN(c2oc(COc3ccccc3Cl)nc2C#N)CC1	0.21	1
O=C(Cn1nnc(-c2ccccc2F)n1)Nc1ccccc1F	-0.18	0.87
CSCCC(NS(=O)(=O)c1ccc2[nH]c(=O)c(=O)[nH]c2c1)C(=O)O (configuration not stated)	0.98	1
Cc1ccc2nc(C)cc(Nc3ccc4c(c3)OCCO4)c2c1	-0.25	0.79
CCN(CC)C(=O)Cn1cnc2sc(C)c(S(=O)(=O)N3CCC(C)CC3)c2c1=O	1.8	1.2
CC1=Nc2cc(C(=O)NCCCN3CCOCC3)ccc2Sc2ccc(Br)cc21	1.4	1
Cc1[nH]c2ccccc2c(=O)c1CN1CCOCC1	0.83	1
COc1ccc2nc(N3CCCC(C(=O)NCc4ccccn4)C3)sc2c1 (configuration not stated)	-1.3	0.92
CC(C)CCNC(=O)C1CC(=O)N(CCc2ccccc2)C1 (configuration not stated)	-0.25	0.99
COc1ccc(-c2cn(-c3ccc(C)cc3)c(S(=O)(=O)CC(=O)Nc3cc(F)ccc3F)n2)cc1	-0.38	0.78
CCCNC(=O)c1ccc2c(c1)ncn2-c1cc(C)ccc1OC	-2.1	0.82
COc1ccc(CCNC(=O)c2ccc3nc(N4CCC(C)CC4)sc3c2)cc1OC	-0.46	0.98
CN(Cc1ccccc1)c1nc(-c2ccccc2)cs1	0.7	1
COc1ccc(-c2cc(C(=O)Nc3cc(C(F)(F)F)ccc3Cl)c3ccccc3n2)cc1OC	3	1.1
O=C(NCc1ccc2c(c1)OCO2)c1cc(-c2ccncc2)nc2ccccc12	-0.06	0.95
Cc1nn(Cc2ccc(F)cc2)c(C)c1NC(=O)c1cc(-c2ccc(F)cc2)on1	-0.47	0.99
CC(=O)c1c(C)n(-c2ccccc2)c2ccc(OCC(O)CN3CCOCC3)cc12 (configuration not stated)	-0.2	0.9

5 of the entries above in order of the CBX7 inh z-score value, smallest number first.
SMILES	CBX7 inh z-score
COc1ccc2nc(N3CCCC(C(=O)NCc4ccccn4)C3)sc2c1 (configuration not stated)	-1.3
Cc1nn(Cc2ccc(F)cc2)c(C)c1NC(=O)c1cc(-c2ccc(F)cc2)on1	-0.47
COc1ccc(-c2cn(-c3ccc(C)cc3)c(S(=O)(=O)CC(=O)Nc3cc(F)ccc3F)n2)cc1	-0.38
CSCCC(NS(=O)(=O)c1ccc2[nH]c(=O)c(=O)[nH]c2c1)C(=O)O (configuration not stated)	0.98
CCN(CC)C(=O)Cn1cnc2sc(C)c(S(=O)(=O)N3CCC(C)CC3)c2c1=O	1.8

The list is partial; count on the stated rates, not on these rows.
